GIV Gai3 FP – inhibitors of GIV peptide binding to Galpha-i3, primary screen, biochemical, fluorescence polarization, FITC-GIV GBA peptide, rat Galphai3 | 90 min; active compounds read low; scaled: aluminum fluoride 0%, vehicle 100% | percent of control (FP), % (concentration not given with the values) | AID 1224905, 2016 | Guanine nucleotide-binding protein G(i) subunit alpha-3 (Rattus norvegicus), P08753 | 210,000 compounds, 0.42% hits;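 active = replicate mean at 85% of control or lower, very high polarization wells dropped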;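 note: wells of about 15 µL received 100 nL stock; the first replicate is given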
Target sequence (P08753 whole entry, looked up): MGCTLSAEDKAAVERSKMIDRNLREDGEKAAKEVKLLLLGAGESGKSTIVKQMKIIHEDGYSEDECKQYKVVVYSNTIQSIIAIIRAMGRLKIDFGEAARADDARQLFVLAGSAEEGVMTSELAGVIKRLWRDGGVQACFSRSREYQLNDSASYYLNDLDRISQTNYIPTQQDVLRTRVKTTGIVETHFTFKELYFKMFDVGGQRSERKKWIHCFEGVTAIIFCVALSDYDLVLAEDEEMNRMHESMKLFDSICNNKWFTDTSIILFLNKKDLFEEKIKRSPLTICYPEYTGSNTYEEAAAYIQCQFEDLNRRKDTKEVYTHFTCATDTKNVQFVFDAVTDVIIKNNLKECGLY
HCMV UL50-53 inh – inhibitors of HCMV UL50-UL53 interaction, biochemical, HTRF; HCMV UL50-UL53 nuclear egress complex (human cytomegalovirus); normalized percent inhibition; inhibition, % (no concentration beside the values); 190,000 compounds, 0.15% hits; AID 1918969, 2023;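 active = both replicates at 50% or more, plus weaker picks with an unusually low signal ratio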;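 note: stock transfer was 100 nL into about 20 µL; 0% = negative control wells and 100% = wells with untagged competitor protein; inactives centre near -12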
Sa growth inh – S. aureus growth inhibition at 42 and 30 °C, primary screen, LtaS inhibitor project, RN4220, two temperatures; OD600, 20 h, 42 °C; active compounds read low; relative growth, % (no concentration beside the values); 170,000 compounds, 0.53% hits; AID 720641, 2013;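 active = growth at 42 °C up to 50% and 20 or more points under that at 30 °C, or under 10% at both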;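 note: 300 nL library stock went into each well; scaled to the means of positive and negative controls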
Sa growth inh second temp – further read-out of Sa growth inh, marked with its call; relative growth, %; measured here: growth at 30 °C;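 optical density after 20 h as mean of two plates; 100% = untreated growth and lower means inhibition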
An asterisk follows results filed as active; & = joins results of further samples.

Preview (4 entries):
COCC(C)NC(=O)c1ccccc1OC(C)=O (configuration not stated) was read as GIV Gai3 FP 101, HCMV UL50-53 inh 4, Sa growth inh 102 and Sa growth inh second temp 104.
Screening O=C(CC(c1ccccc1)c1ccccc1)NCCN1CCOCC1 returned HCMV UL50-53 inh -3, Sa growth inh 112 and Sa growth inh second temp 93.
Screening COc1ccc(CN2CN=C(Nc3nc(C)c4cc(OC)ccc4n3)NC2)cc1 returned GIV Gai3 FP 104 and HCMV UL50-53 inh 8.
For CC1(C)C(=O)N(CC(=O)N2CCN(c3ccccn3)CC2)c2ccccc21 the results were GIV Gai3 FP 101 and HCMV UL50-53 inh 16.

Results, from the start:
COCC(C)NC(=O)c1ccccc1OC(C)=O (configuration not stated) was read as GIV Gai3 FP 101, HCMV UL50-53 inh 4, Sa growth inh 102 and Sa growth inh second temp 104.
Screening O=C(CC(c1ccccc1)c1ccccc1)NCCN1CCOCC1 returned HCMV UL50-53 inh -3, Sa growth inh 112 and Sa growth inh second temp 93.
Screening COc1ccc(CN2CN=C(Nc3nc(C)c4cc(OC)ccc4n3)NC2)cc1 returned GIV Gai3 FP 104 and HCMV UL50-53 inh 8.
For CC1(C)C(=O)N(CC(=O)N2CCN(c3ccccn3)CC2)c2ccccc21 the results were GIV Gai3 FP 101 and HCMV UL50-53 inh 16.
Screening COc1ccccc1-n1cc(-c2ccc(C)cc2)nc1S(=O)(=O)CC(=O)Nc1ccccc1C(F)(F)F returned GIV Gai3 FP 103, HCMV UL50-53 inh 12, Sa growth inh 110 and Sa growth inh second temp 101.
Screening Cc1cc(C(F)(F)F)nc(SCCNC(=O)Cc2ccc(F)cc2)n1 returned GIV Gai3 FP 108, Sa growth inh 78 and Sa growth inh second temp 82.
COc1cc(Cl)c(C)cc1NC(=O)CSc1ncc(S(=O)(=O)c2ccc(C(C)(C)C)cc2)c(=O)[nH]1 was read as GIV Gai3 FP 103, HCMV UL50-53 inh -25, Sa growth inh 47 and Sa growth inh second temp 53.
For CSCCn1c(-c2ccccc2)cc(C(=O)NCc2ccco2)c1C the results were GIV Gai3 FP 104, HCMV UL50-53 inh -2, Sa growth inh 107 and Sa growth inh second temp 90.
For COc1ccc(N2CC(NC(=O)c3ccc(Br)o3)CC2=O)cc1 (configuration not stated) the results were GIV Gai3 FP 98, Sa growth inh 88 and Sa growth inh second temp 84.
For COc1ccc2[nH]c3c(=O)[nH]cnc3c2c1 the results were HCMV UL50-53 inh -10, Sa growth inh 92 and Sa growth inh second temp 84.
CCOC(=O)Cc1csc(-c2ccc(F)cc2F)n1 was read as GIV Gai3 FP 103, HCMV UL50-53 inh 6, Sa growth inh 109 and Sa growth inh second temp 74.
Cc1cc2nc3c(=O)[nH]c(=O)nc-3n(CC(O)C(O)C(O)CO)c2cc1C (configuration not stated) was read as HCMV UL50-53 inh -137, Sa growth inh 94 and Sa growth inh second temp 85.
For CCCN1C2CCCC1CC(NC(=O)c1ccccc1C)C2 (configuration not stated) the results were GIV Gai3 FP 103, HCMV UL50-53 inh -24, Sa growth inh 91 and Sa growth inh second temp 95.
Screening COc1ccc(-c2nc3n(n2)C(c2ccc(OC)cc2)C(C(=O)Nc2cccnc2)=C(C)N3)cc1 (configuration not stated) returned GIV Gai3 FP 97, HCMV UL50-53 inh -23, Sa growth inh 119 and Sa growth inh second temp 77.
Cc1ccc(-c2noc(-c3ccccc3OCC(=O)Nc3nc(C(C)C)cs3)n2)cc1 was read as GIV Gai3 FP 104 and HCMV UL50-53 inh 14.
`Cc1cc(C)n2ncc(C(=O)Nc3cccc(C(F)(F)F)c3)c2n1` gave GIV Gai3 FP 100, HCMV UL50-53 inh -2, Sa growth inh 103 and Sa growth inh second temp 80.
`COc1cc2c(c(OC)c1OC)-c1ccc(O)c(=O)cc1[C@@H](NC(=O)C(F)(F)F)CC2` gave HCMV UL50-53 inh -46, Sa growth inh 117 and Sa growth inh second temp 87.
`CCOCCCNC(=O)C(c1ccc(C)cc1)N(Cc1cccs1)C(=O)c1ccc(NC(C)=O)cc1` (configuration not stated) gave GIV Gai3 FP 103, HCMV UL50-53 inh 33, Sa growth inh 96 and Sa growth inh second temp 93.
For CCC(Sc1nc2cc(OC)c(OC)cc2c2nc(-c3ccccc3)nn12)C(=O)Nc1cccc(C)c1 (configuration not stated) the results were GIV Gai3 FP 98, HCMV UL50-53 inh -2, Sa growth inh 108 and Sa growth inh second temp 89.
For O=C(O)C1CCCN(S(=O)(=O)c2ccccc2)C1 (configuration not stated) the results were GIV Gai3 FP 99, Sa growth inh 83 and Sa growth inh second temp 93.
For O=C(NC1CC1)c1cnc2sccn2c1=O the results were GIV Gai3 FP 108 and HCMV UL50-53 inh 0.
For COc1cc([N+](=O)[O-])ccc1N1C(=O)C2C3C=CC(CC3)C2C1=O (configuration not stated) the results were GIV Gai3 FP 103 and HCMV UL50-53 inh -14.
For CCCc1ccc(OCc2ccc(C(=O)NCc3cccnc3)o2)c(OC)c1 the results were HCMV UL50-53 inh -11, Sa growth inh 96 and Sa growth inh second temp 79.
For O=C(Nc1nccs1)c1ccc(F)cc1 the results were HCMV UL50-53 inh 2, Sa growth inh 92 and Sa growth inh second temp 93.
Screening O=C(COc1ccc(F)cc1)OCc1cc(=O)n2nc(-c3cccs3)sc2n1 returned GIV Gai3 FP 108, Sa growth inh 91 and Sa growth inh second temp 84.
`Cc1c(Sc2ccc(Cl)cc2)cnn1CCC#N` gave GIV Gai3 FP 105, HCMV UL50-53 inh 3, Sa growth inh 109 and Sa growth inh second temp 106.
`O=C(/C=C/c1cccs1)N1CCN(C(=O)/C=C/c2cccs2)CC1` gave GIV Gai3 FP 108, HCMV UL50-53 inh 3, Sa growth inh 104 and Sa growth inh second temp 93.
Screening CCOc1ccc(C(=O)NCC(c2ccco2)S(=O)(=O)c2ccc(C)cc2)cc1 (configuration not stated) returned GIV Gai3 FP 94, Sa growth inh 83 and Sa growth inh second temp 93.
`CSc1nc(NCCCO)c(C#N)c(-c2ccccc2)n1` gave GIV Gai3 FP 104, HCMV UL50-53 inh 13, Sa growth inh 111 and Sa growth inh second temp 94.
`CCOC(=O)C(Cc1ccccc1)C(=O)Nc1ccc(OC)cc1` (configuration not stated) gave GIV Gai3 FP 97, HCMV UL50-53 inh 0, Sa growth inh 94 and Sa growth inh second temp 88.

Nothing new here: an excerpt of the list.
`O=C(/C=C/c1cccs1)N1CCN(C(=O)/C=C/c2cccs2)CC1` gave GIV Gai3 FP 108, HCMV UL50-53 inh 3, Sa growth inh 104 and Sa growth inh second temp 93.
Screening CCOc1ccc(C(=O)NCC(c2ccco2)S(=O)(=O)c2ccc(C)cc2)cc1 (configuration not stated) returned GIV Gai3 FP 94, Sa growth inh 83 and Sa growth inh second temp 93.
`CSc1nc(NCCCO)c(C#N)c(-c2ccccc2)n1` gave GIV Gai3 FP 104, HCMV UL50-53 inh 13, Sa growth inh 111 and Sa growth inh second temp 94.
`CCOC(=O)C(Cc1ccccc1)C(=O)Nc1ccc(OC)cc1` (configuration not stated) gave GIV Gai3 FP 97, HCMV UL50-53 inh 0, Sa growth inh 94 and Sa growth inh second temp 88.

(list continues)
CCOC(=O)c1ccc(C[N+]2(C)CCOCC2)o1 was read as HCMV UL50-53 inh -21, Sa growth inh 116 and Sa growth inh second temp 78.
Screening COC(=O)c1sccc1OC(=O)c1nn(-c2ccccc2)nc1C returned GIV Gai3 FP 99, HCMV UL50-53 inh -18, Sa growth inh 101 and Sa growth inh second temp 93.
`COc1ccc(N2C(=O)c3cc4ccsc4n3CC2(C)C(=O)NC2CCCC2)c(OC)c1` (configuration not stated) gave GIV Gai3 FP 110 and HCMV UL50-53 inh -38.
For Cc1ccc(-c2cc(N)n(-c3ccccc3)n2)cc1 the results were HCMV UL50-53 inh -14, Sa growth inh 110 and Sa growth inh second temp 94.
Screening O=C(CSc1nnc(-c2ccncc2)n1-c1ccccc1)NC(=O)NC1CCCC1 returned HCMV UL50-53 inh -16, Sa growth inh 94 and Sa growth inh second temp 98.
`O=C(NCCC1=CCCCC1)c1cnc2sc3c(n2c1=O)CCCCCC3` gave GIV Gai3 FP 109 and HCMV UL50-53 inh -12.
Screening O=c1[nH]c2ccc(NC(=S)Nc3ccccc3)cc2[nH]1 returned GIV Gai3 FP 103, HCMV UL50-53 inh -10, Sa growth inh 91 and Sa growth inh second temp 90.
Screening COc1ccccc1CCNC(=O)Cc1c(C)c2cc3c(C)coc3cc2oc1=O returned GIV Gai3 FP 100, HCMV UL50-53 inh -22, Sa growth inh 111 and Sa growth inh second temp 92.
Screening COc1ccccc1CNC(=O)Cc1csc2nc(-c3ccccc3)cn12 returned GIV Gai3 FP 105&108, HCMV UL50-53 inh 10, Sa growth inh 105 and Sa growth inh second temp 84.
CCCCNC(=O)c1cc(S(=O)(=O)N(C)C)oc1C was read as GIV Gai3 FP 99, HCMV UL50-53 inh -26, Sa growth inh 100 and Sa growth inh second temp 79.
CCc1ccc(CNc2nc3nc(CN4CCCC4)cc(=O)n3[nH]2)cc1 was read as GIV Gai3 FP 94 and HCMV UL50-53 inh -6.
`O=C(NCc1cccc(Cl)c1)c1ccc(NC(=O)N2CC3CCCN3c3ccccc32)cc1` (configuration not stated) gave GIV Gai3 FP 102, Sa growth inh 120 and Sa growth inh second temp 94.
Screening CCc1nc2ccccc2n1CC(O)COc1cccc(C)c1 (configuration not stated) returned GIV Gai3 FP 108 and HCMV UL50-53 inh -5.
For COc1cc(OC)cc(C(=O)Nc2ccc3oc(-c4ccccc4C)nc3c2)c1 the results were GIV Gai3 FP 109, HCMV UL50-53 inh -24, Sa growth inh 109 and Sa growth inh second temp 72.
`COc1ccc(S(N)(=O)=O)cc1C(=O)OCc1cn2cc(Cl)ccc2n1` gave HCMV UL50-53 inh -30, Sa growth inh 83 and Sa growth inh second temp 87.
C/C(N)=C(/C#N)C(=O)COc1ccccc1F was read as HCMV UL50-53 inh -8, Sa growth inh 101 and Sa growth inh second temp 91.
Screening COc1ccc(N(CC(=O)NCc2ccc(F)cc2)S(=O)(=O)c2c(C)n[nH]c2C)cc1 returned GIV Gai3 FP 104, HCMV UL50-53 inh -15, Sa growth inh 106 and Sa growth inh second temp 86.
CCCCCCCCCCC(C)(C)C(=O)Nc1c(OC)cc(OC)cc1OC was read as GIV Gai3 FP 95 and HCMV UL50-53 inh 4&-19.
`COc1ccccc1N1CCN(C(=O)c2c(C)oc3ncn(CC(C)C)c(=O)c23)CC1` gave GIV Gai3 FP 107, Sa growth inh 105 and Sa growth inh second temp 88.
For CCC(O)(c1ccccc1)C(CN1CCOCC1)c1ccccc1 (configuration not stated) the results were GIV Gai3 FP 106, HCMV UL50-53 inh -16, Sa growth inh 91 and Sa growth inh second temp 80.
`CCC(=O)N1C(c2ccccc2)=C(C)Sc2nnc(C)n21` gave GIV Gai3 FP 107, HCMV UL50-53 inh -40, Sa growth inh 75 and Sa growth inh second temp 85.
For Cc1csc(NC(=O)C(C)(C)Br)n1 the results were HCMV UL50-53 inh -30, Sa growth inh 121 and Sa growth inh second temp 88.
CCN(CC)S(=O)(=O)c1ccc2c(c1)nc(CCC(=O)OCCOc1ccc(C)cc1)n2C was read as HCMV UL50-53 inh -12, Sa growth inh 88 and Sa growth inh second temp 83.
CCCCSC1=C(C#N)C(=O)NC(CO)S1 (configuration not stated) was read as GIV Gai3 FP 99, HCMV UL50-53 inh -20, Sa growth inh 96 and Sa growth inh second temp 88.
For CC1CCCC(C)N1C(=O)c1cc(C2CC2)on1 (configuration not stated) the results were GIV Gai3 FP 110 and HCMV UL50-53 inh 0.
`CCOC(=O)N1CCc2c(sc3c2c(=O)n(-c2ccc(Cl)cc2)c(=O)n3Cc2cccc(OC)c2)C1` gave GIV Gai3 FP 105 and HCMV UL50-53 inh 3.
Screening Cc1ccccc1C1C2=C(CC(c3ccc(O)cc3)CC2=O)Nc2onc(C)c21 (configuration not stated) returned GIV Gai3 FP 102 and HCMV UL50-53 inh -19.
Screening N#Cc1ccc(Cl)cc1N=Cc1ccc2ncccc2c1 returned HCMV UL50-53 inh -69, Sa growth inh 111 and Sa growth inh second temp 84.
Screening COc1ccc(N2CCN(CCNc3ncnc4onc(C)c34)CC2)cc1 returned GIV Gai3 FP 100, HCMV UL50-53 inh -5, Sa growth inh 112 and Sa growth inh second temp 92.

High-throughput results: PubChem, ICCB-Longwood Screening Facility, Harvard Medical School
